# MT1-MMP act inh: inhibitors of human MT1-MMP activation | GFP/RFP ratio change, % at 20 µM | hit rate 0.061% among 360,000 | P50281 | HT1080 RFP-PRO-GFP cells, GFP/RFP ratio fluorescence, overnight; percent of plate control window, DMSO zero;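 active = GFP/RFP ratio change of at least 30% with cell ATP level not reduced by more than half and red fluorescence within 50% of control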; note: strong numbers were not always called active
#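 Material: RFP-PRO-GFP reporter HT1080 cells. Dosing: single-point 20 µM compound, 1% DMSO. Controls: DMSO and RFP-L50D-GFP cell wells. Timing: cells overnight before dosing, compound overnight, 37 °C, 5% CO2. Measure: GFP/RFP fluorescence ratio.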
# Env fusion inh: HIV envelope-mediated fusion inhibition | HeLa-JRFL Env/CEM21 cell fusion, luciferase | inhibition, % at 12.3 µM | hit rate 1.1% among 360,000;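 active = mean replicate inhibition score of at least 50 and every replicate individually at or above 50; inconclusive = only one of the two criteria met; inactive = mean below 50 and not all replicates reaching 50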;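 note: 0% = plate neutral controls and 100% = maraviroc near 300 nM; one replicate is shown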
# MT1-MMP act inh RFP: second read-out of MT1-MMP act inh, no call of its own (marks repeat the call); RFP signal change, %; measured here: RFP expression control read;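 0 = vehicle wells; hits needed this value within 50% of zero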
# * marks the source's active call; other numbers are inactive results; ? = inconclusive; [ ] = another dose, or the depositor's remark.
SMILES,MT1-MMP act inh,MT1-MMP act inh RFP,Env fusion inh
O=C(Nc1ccc2c(c1)OCCO2)C(c1ccccc1)n1c(=O)c(-c2ccco2)nc2ccccc21 (stereo not given),-6,-3,6
CC1Cc2c([nH]c(=O)n(-c3ccccc3)c2=O)O1 (stereo not given),4,4,-29
ONC(=NCc1ccccc1)c1ccccc1,9,-1,-5
O=C1c2ccccc2C(c2nnnn2-c2ccc3c(c2)OCCO3)N1Cc1ccco1 (stereo not given),8,6,5
CCCCCCCCCc1conc1C(=O)/C=C/c1oc2c(c1C)CCC(C)C2 (stereo not given),2,2,-19
COc1ccccc1Cc1c(-c2ccc(Cl)cc2)nc2c3ccccc3ccn12,-2,-3,19
CCOC(=O)N1CCN(C(c2ccnc3ccccc23)c2nnnn2-c2c(C)cccc2C)CC1 (stereo not given),8,1,15
Cc1cc(C)cc(Cn2cc(CN3CC(N4CCN(CCN(C)C)CC4)CS3(=O)=O)nn2)c1 (stereo not given),3,7,0
CCOC(=O)[C@]12CCC=C1N(CCC1=CCCCC1)C(=O)[C@H](CC(=O)NCCc1ccccc1OC)C2,-3,-1,-3
COc1ccc(OC)c(CN2C(=O)CN(S(C)(=O)=O)CC2(C)C(=O)NC(C)C)c1 (stereo not given),13,6,6
Cc1ccc(S(=O)(=O)N2C3CC(c4ccccc4)N(S(=O)(=O)c4ccccc4Cl)CC3C(=O)C[C@H]2c2ccccc2)cc1 (stereo not given in full),0,-5,12
COc1ccc(CN2C(=O)CCC2(C)c2nnnn2Cc2ccccc2)cc1OC (stereo not given),2,6,2
C[C@H]1COc2cccc(N3CCN(Cc4ccccc4F)CC3)c2S(=O)(=O)N1,3,3,-10
Cc1cc2nc(-c3nnnn3C3CCCCC3)c(=O)[nH]c2cc1C,4,-1,20
CCc1ccc(N2C=C(C(=O)OC)C(c3cccc4ccccc34)C(C#N)=C2N)cc1 (stereo not given),4,-7,-20
Cc1ccc(S(=O)(=O)C[C@@H]2OC[C@H](C(C)C)N2S(=O)(=O)c2ccc(C)cc2)cc1,-3,-1,42
Cc1ccc(N2CCN(C(C(=O)Nc3c(C)cccc3C)c3ccccc3OC(F)(F)F)CC2)cc1 (stereo not given),-24,-18,2
CCOC(=O)[C@]12CCCC=C1N(Cc1ccccc1)C(=O)[C@H](CC(=O)NCCCOC)C2,-4,0,60*
COC(=O)[C@]12CCCCC=C1N(CCc1ccc(OC)c(OC)c1)C(=O)[C@H](CC(=O)N1CCSCC1)C2,3,2,-32
CCOc1ccc(CCN2C(=O)C(=O)N([C@@H](CC(C)C)CN3CCC[C@H]3CN3C(=O)C(=O)NC[C@@H]3CC(C)C)C[C@@H]2Cc2ccccc2)cc1,2,-3,3
CCOC(=O)Nc1ccc2c(c1)C(=NNC(N)=S)c1ccccc1-2,12,-10,-19
CCOC(=O)C(=O)N(C)c1c(CC)nc2c(OCc3ccc(Cl)cc3)cccn12,2,3,-9
CC(C)c1ccc(NC(=O)C2=CC=CN3CCS(=O)(=O)N=C23)cc1,7,5,-27
C[C@H](O)[C@@H]1C(=O)N2CCc3ccc(-c4ccccc4)cc3[C@@H]2C[C@@H]1N(C)C(=O)c1ccco1,4,-3,-79
Cc1ccccc1-c1cc2nc(Oc3cccc4ccccc34)n(C)c(=O)c2s1,2,6,-11
CC(C#N)(NC(=O)CN1CCN(S(=O)(=O)c2cc(C(F)(F)F)ccc2Cl)CC1)C1CC1 (stereo not given),6,-3,8
O=C1NC[C@H](CCCCN2CCN(CC3CCCCC3)C(=O)C2=O)N(CC2CCCCC2)C1=O,3,7,11
CC(C)CC(N)c1csc(Nc2ccccn2)n1 (stereo not given),0,4,-20
CN(C)c1ccc(C=c2c3ccccc3n3c2cc(-c2ccc(Cl)cc2)[n+]3C)cc1,46,52,0
Cc1cccc(C)c1-n1nnnc1C1(C)CCC(=O)N1Cc1cccc(C(F)(F)F)c1 (stereo not given),4,-3,16
CCN(C)C1CN(Cc2cn(Cc3ccccc3)nn2)S(=O)(=O)C1 (stereo not given),0,2,-8
CC(C)[C@@H]1Cc2[nH][nH]c(=O)c2[C@H](CCc2ccccc2)O1,5,4,27
COC(=O)[C@@]12C[C@@H](CC(=O)N3CCCCC3)C(=O)N(Cc3ccc4c(c3)OCO4)C1=CCC(C)(C)C2,-6,-4,1
COC(=O)c1c(C)cccc1C1CN=NC12Cc1ccccc1C2=O (stereo not given),-7,-7,22
CCN(CC)c1ncnc2c1ncn2[C@H]1CN(Cc2cccnc2)C[C@@H](CO)O1,2,6,9
O=C1NC[C@@H](CCCCN2C[C@H](Cc3ccccc3)N(Cc3ccccc3)C(=O)C2=O)N(CC2CCCCC2)C1=O,3,4,-6

# Part of the list above in order of formula weight, high to low.
SMILES,MT1-MMP act inh,MT1-MMP act inh RFP,Env fusion inh
CC(C#N)(NC(=O)CN1CCN(S(=O)(=O)c2cc(C(F)(F)F)ccc2Cl)CC1)C1CC1 (stereo not given),6,-3,8
O=C1NC[C@H](CCCCN2CCN(CC3CCCCC3)C(=O)C2=O)N(CC2CCCCC2)C1=O,3,7,11
CC(C)[C@@H]1Cc2[nH][nH]c(=O)c2[C@H](CCc2ccccc2)O1,5,4,27

# (cont.)
SMILES,MT1-MMP act inh,MT1-MMP act inh RFP,Env fusion inh
CCCCNC(=O)c1nc(C2CCN(S(=O)(=O)c3ccc(C(F)(F)F)cc3)CC2)oc1-c1ccccc1,0,-14,25
CCOc1ccc(CCN2C(=S)N([C@@H](Cc3ccc(O)cc3)CN3CCC[C@@H]3CN3C(=S)NC[C@@H]3Cc3ccc(O)cc3)C[C@@H]2Cc2ccc(O)cc2)cc1,-5,-8,-143
O=c1[nH]c2ccccc2nc1-c1nnnn1C1CCCC1,1,0,-16
CCOC(=O)/C(=C\c1ccccc1)C(=O)CCN1CCOCC1,-1,-1,-15
CCC1OC(C)Cc2[nH][nH]c(=O)c21 (stereo not given),3,5,27
Cc1c(/C(O)=C2\C(=O)C(=O)N(CCCN(C)C)C2c2cccs2)cnn1-c1ccccc1 (stereo not given),4,3,-62
COc1ccc(C=C(C(=O)c2ccccc2)c2ccccc2)cc1,-2,-3,13
Cn1c(-c2ccccc2)c(Sc2ccccc2)c2cc(-c3ccc4[nH]ccc4c3)ccc21,-1,-7,13
C[C@@H]1CC2=C(C(=O)OC(C)(C)O2)[C@H](c2ccc(Cl)cc2)O1,7,4,-12
CCOC(=O)C1(C(=O)OCC)CCN(S(=O)(=O)c2ccccc2)CC1,-2,-7,-85
CCCCn1nnnc1C(c1ccccc1)N1CCc2ccccc2C1 (stereo not given),-1,1,-19
c1cc(N2CCOCC2)ccc1-c1ccc2nncn2c1,4,7,-42
CCc1ccc(OCC(=O)NNC(=O)c2ccc(-n3cncn3)c([N+](=O)[O-])c2)cc1,4,4,2
Cc1nc2c(OCCC3CCCCC3)cccn2c1N(C)C(=O)CCC1CCCC1,-24,-23,18
COC(=O)[C@@]12C[C@@H](CC(=O)N3CCN(C(=O)c4ccco4)CC3)C(=O)N(Cc3cccc4ccccc34)C1=CCC(C)(C)C2,-4,-12,18
CCCCCc1c(-c2ccccc2F)ncn1CCc1ccccc1OC,-8,-26,46
O=C1NC[C@H](CCCCN2C[C@H](Cc3ccc(O)cc3)N(CCC3CCCCC3)C(=O)C2=O)N(CCc2ccc(O)cc2)C1=O,-4,2,-60
Cc1cc(C)c(C#N)c(Sc2nc(C)c([N+](=O)[O-])c(C)c2C#N)n1,-3,-9,-3
CC(C)(C)NC(=O)C1c2ccccc2OCC(=O)N1Cc1cccnc1 (stereo not given),6,15,-34
COC(=O)C12OCC34C(CC5C(C)=C(O)C(=O)CC5(C)C3C(O)C1O)OC(=O)C(OC(=O)C=C(C)C)C24 (stereo not given),-36,-37,64*
CSCCC(C(=O)Nc1c(C)cccc1C)n1c(-c2ccc(-c3ccccc3)cc2)nc2ccccc21 (stereo not given),-6,-7,11
O=C1NC[C@H](CCCCN2C[C@H](Cc3ccccc3)N(CCc3ccccc3)C(=O)C2=O)N(CC2CCCCC2)C1=O,2,-1,7
Cc1cccc(C)c1NC(=O)C(c1ccccc1F)n1c(=O)c(-c2ccco2)nc2ccccc21 (stereo not given),-5,11,-16
CN(C)CCNc1ccc(CO)c2sc3ccc(O)cc3c(=O)c12,1,-1,-84
Cc1cccc(C)c1NC(=O)C1(C)CSCC(=O)N1CCc1ccccc1F (stereo not given),4,2,-18
COC(=O)C(C(=O)OC)c1ccccc1NC(=O)OCc1ccccc1,2,8,-13
Cc1ccccc1S(=O)(=O)N1C(c2ccc(Cl)cc2)CC=C(C(=O)O)C1c1cccc(Cl)c1 (stereo not given),-6,3,7
CCCC(=O)NC1=C(Cl)C(=O)c2ccccc2C1=O,-40,30,36
CN(N=O)c1ccc(CC2CCc3ccccc32)cc1 (stereo not given),3,-5,-20
Cc1ccccc1Nc1nc(N)nc(COC(=O)CCC(=O)c2ccc(F)cc2)n1,3,-2,-78
COc1cccc(C(=O)c2ccccc2C(=O)O)c1,1,2,41
Cc1ccccc1CN1C(=O)CN(S(C)(=O)=O)CC1(C)C(=O)Nc1c(C)cccc1C (stereo not given),0,5,-12
COC(=O)[C@@]1(Cc2ccc(F)cc2)[C@H]2c3cc(C(=O)N4CCCC4)n(Cc4ccc(C)c(F)c4F)c3C[C@H]2CN1C(=O)c1ccccc1,-25,-30,-60
COC(=O)C[C@@H]1CC[C@H](NC(=O)Nc2ccc(OC)cc2)[C@@H](CO)O1,1,6,-1
Cc1ccc(S(=O)(=O)N2CCN(CN3C(=O)CC4(CCCC4)C3=O)CC2)cc1,-2,3,-8
Cc1cccc(NC2(C(=O)O)CCCC2)c1,-6,1,-1
Cc1c(-c2ccccc2Br)nc2ccccc2c1C(=O)O,-2,3,16
CC1=C(C(=O)N2CCCCCC2)CC(CC(=O)NCCCN(C)C)C(=O)N1Cc1ccc(F)cc1 (stereo not given),14,12,5
CC(=O)c1c(C)[nH]c(C(=O)CN2C(=O)NC3(CCCCC3)C2=O)c1C,5,1,0
O=C(C=Cc1ccco1)c1ccc2ccccc2c1,-10,-1,-35
COc1ccc(NC(=O)C2c3ccccc3OCC(=O)N2Cc2ccco2)cc1 (stereo not given),-1,-2,-50
NC(CSC1(c2ccc(F)cc2)c2ccccc2-c2ccccc21)C(=O)O (stereo not given),6,3,-1
CCCCCC(=O)N1C[C@@H](O)[C@H](n2cc(-c3ccc(F)cc3)nn2)C[C@@H]1c1ccc(C)cc1,4,-6,-24
Fc1cccc(Cc2c(-c3ccccc3)nc3c4ccccc4ccn23)c1,-1,-3,-70
CCCCNC(=O)COC(=O)c1c2c(nc3ccccc13)/C(=C\c1cccs1)CC2,-8,-1,-23
COc1cccc(C(=O)N2CCC[C@@H]2C(=O)N2CCC[C@H]2C(=O)NCc2ccncc2)c1,2,2,5
COc1ccc(C(=O)c2cc(OC)c(OC)c(OC)c2)cc1OC,8,-7,-19
Cc1cccc(NC(=O)COc2ccc3c(c2)CCC3)n1,5,0,-19

# Four entries from above, as labelled records:
CCCCNC(=O)COC(=O)c1c2c(nc3ccccc13)/C(=C\c1cccs1)CC2
- MT1-MMP act inh: -8
- MT1-MMP act inh RFP: -1
- Env fusion inh: -23
COc1cccc(C(=O)N2CCC[C@@H]2C(=O)N2CCC[C@H]2C(=O)NCc2ccncc2)c1
- MT1-MMP act inh: 2
- MT1-MMP act inh RFP: 2
- Env fusion inh: 5
COc1ccc(C(=O)c2cc(OC)c(OC)c(OC)c2)cc1OC
- MT1-MMP act inh: 8
- MT1-MMP act inh RFP: -7
- Env fusion inh: -19
Cc1cccc(NC(=O)COc2ccc3c(c2)CCC3)n1
- MT1-MMP act inh: 5
- MT1-MMP act inh RFP: 0
- Env fusion inh: -19

# Next entries:
SMILES,MT1-MMP act inh,MT1-MMP act inh RFP,Env fusion inh
O=C1NC[C@@H](CCCCN2C[C@H](Cc3ccc(O)cc3)N(CCc3ccccc3)C(=O)C2=O)N(CCC2CCCCC2)C1=O,8,6,-65
COc1ccc(NC(=O)c2cc(-c3sc(NC(=O)c4ccccc4)nc3C)n(Cc3ccccc3)n2)cc1,7,-3,7
O=C1NC[C@@H](CCCCN2C[C@H](Cc3ccccc3)N(CCc3ccc(O)cc3)C(=O)C2=O)N(Cc2ccccc2)C1=O,2,4,?
CC(=O)CC1c2cc(F)ccc2C=C(c2ccsc2)N1c1ccc(-c2cccnc2)cc1 (stereo not given),-11,-18,-18
COC(=O)C[C@@H]1CC[C@H](NC(=O)Nc2cccc(F)c2)[C@@H](CO)O1,1,6,-7
Cc1cccc(C)c1NC(=O)C(c1ccccc1)n1c(=O)c(-c2ccccc2)nc2ccccc21 (stereo not given),-21,-18,6
COC(=O)c1ccc2nc(-c3ccc(F)cc3)c(Cc3ccccc3OC)n2c1,-2,-1,3
O=C(C[n+]1cccc(/C=N/O)c1)NC(=O)Nc1ccccc1,2,7,-24
O=C(Nc1c(Cl)ccc2nsnc12)c1ccc(Br)o1,2,2,2
O=C(NC(CO)C(=O)OCc1ccccc1)OCc1ccccc1 (stereo not given),1,-2,-3
Nc1nc(N)c2ncn(C3C=CC(CO)C3)c2n1 (stereo not given),6,10,-3
Cc1cccc(C)c1-n1nnnc1C1c2ccccc2C(=O)N1C1CC1 (stereo not given),5,8,-6
C/C=C/c1cccc(-c2nc(C(=O)N3CCCCC3)cc3c2[C@@H](CCO)N(C(=O)NC(C)C)C3)c1,4,5,-9[16.7 µM]
CCCCCCCCN1C(=O)[C@H](CC(=O)NCCCOC)C[C@@]2(C(=O)OC)CC(C)(C)CC=C12,3,-3,-6

# This is a subset (hit frequency here may not be typical).
